Screens from PubChem.
HSV replic up = enhancers of HSV replication in host cells, fold increase, host cell viability; HSV replication augmentation in cells; 220,000 compounds, 0.005% hits; maximum fold increase; AID 1956, 2009;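 active means peak rise of 1.5-fold or more in the series; inconclusive means self-fluorescent or not available for retest; tested in PC3 cells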;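 further: first round at 10 µM; read as green reporter fluorescence; hits show the peak of a series up to 25 µM; 1 = signal of infected wells without compound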
PKD1 kinase inh = inhibitors of human PKD1 kinase, biochemical, fluorescence polarization | Serine/threonine-protein kinase D1 (Homo sapiens), Q15139 | PKD1 kinase fluorescence polarization assay | inhibition, %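 (about 10 µM by stock and volumes)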 | 200,000 compounds, 0.056% hits | AID 797, 2007;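 active means inhibition of 50% or more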;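 further: controls were vehicle for no effect and a reference inhibitor for full effect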
GALR2 ag = GALR2 receptor agonists, primary screen, cell-based. Galanin receptor type 2 (Homo sapiens), O43603. GALR2-expressing cells, agonist activation read-out. activation, %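 (tested at 5 µM)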. 140,000 compounds, 0.48% hits. AID 803, 2007;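 active means above mean plus 3 SD of all compounds, about 5% in these data, not always enough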;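 further: 0% = vehicle buffer wells and 100% = reference agonist at full effect; tested in CHO reporter cells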
Target sequence (O43603 whole entry, looked up): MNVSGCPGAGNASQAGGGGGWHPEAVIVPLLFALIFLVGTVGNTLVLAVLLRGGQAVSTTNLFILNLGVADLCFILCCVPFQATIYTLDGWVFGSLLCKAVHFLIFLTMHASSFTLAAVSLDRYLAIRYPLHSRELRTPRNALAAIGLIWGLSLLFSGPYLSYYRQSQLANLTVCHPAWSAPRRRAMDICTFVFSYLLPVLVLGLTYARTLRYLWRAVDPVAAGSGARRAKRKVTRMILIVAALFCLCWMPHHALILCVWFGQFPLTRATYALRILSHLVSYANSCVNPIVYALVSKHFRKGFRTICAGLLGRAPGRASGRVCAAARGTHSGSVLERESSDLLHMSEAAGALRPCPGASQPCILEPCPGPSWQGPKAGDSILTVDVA
Insulin prom inh = inhibitors of insulin promoter-driven GFP, primary screen, imaging, TRM-6 cells (human fetal islet line), eGFP reporter, cell count; reporter expression induced with tamoxifen; inhibition, % at 2 µM; 130,000 compounds, 0.9% hits;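 active means inhibition above the mean plus 3 SD, with well images judged a real hit on visual review, cut at about 60% in these data, passing the limit was not always enough; inconclusive means inhibition over the cutoff but images rejected on review; inactive means inhibition not above the cutoff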
RGS16-Gao HTS = modulators of RGS16 binding to Galphao, primary screen, biochemical, human proteins, multiplexed bead flow cytometry. Regulator of G-protein signaling 16 (Homo sapiens) + Guanine nucleotide-binding protein …. bead-based flow cytometry RGS16-Galphao binding, fluorescence; actives lie on both sides. binding response (% of control), % at 10 µM. 220,000 compounds, 0.38% hits;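 active means below 25% or above 175%, edge rows of some plates excepted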;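 further: Galphao activated by GDP with aluminum fluoride before binding; 100% = wells without compound and 0% = beads without RGS; some results beyond the cut were filed as inactive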
Target sequence (O15492 whole entry, looked up): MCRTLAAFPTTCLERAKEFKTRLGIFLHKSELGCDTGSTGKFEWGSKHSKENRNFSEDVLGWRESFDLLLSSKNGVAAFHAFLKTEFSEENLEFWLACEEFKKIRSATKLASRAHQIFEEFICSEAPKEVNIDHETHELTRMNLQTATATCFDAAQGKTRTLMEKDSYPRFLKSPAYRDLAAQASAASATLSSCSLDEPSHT
Target sequence (P09471 whole entry, looked up): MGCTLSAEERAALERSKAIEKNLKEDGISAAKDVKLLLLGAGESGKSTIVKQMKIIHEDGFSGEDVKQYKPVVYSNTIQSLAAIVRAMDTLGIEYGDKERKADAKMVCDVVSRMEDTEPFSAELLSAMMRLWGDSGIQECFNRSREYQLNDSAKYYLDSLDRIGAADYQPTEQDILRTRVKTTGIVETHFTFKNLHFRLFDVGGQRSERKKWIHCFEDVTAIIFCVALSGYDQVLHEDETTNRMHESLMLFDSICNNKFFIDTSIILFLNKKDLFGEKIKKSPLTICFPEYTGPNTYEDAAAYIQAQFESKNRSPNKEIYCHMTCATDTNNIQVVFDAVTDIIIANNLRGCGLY
Insulin prom inh cell count = recorded beside Insulin prom inh, whose call it bears; normalized cell count, %; measured here: cell count, toxicity; reference of the scale not given here;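 cells exposed to compound for 48 h; stained nuclei by imaging scaled within each plate; lower means fewer cells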
HSV replic up primary fold = recorded beside HSV replic up, whose call it bears; fold increase; compound at 10 µM; measured here: primary screen fold increase 10 uM; tested in PC3 cells;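 GFP signal in the first replicate; 1 = infected wells without compound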
* hit, by the source's call; i = inactive; ? = inconclusive; . = no result given.

SMILES	HSV replic up	HSV replic up primary fold	PKD1 kinase inh	GALR2 ag	Insulin prom inh	Insulin prom inh cell count	RGS16-Gao HTS
COc1ccc(/C=N/NC(=O)C2C3CCCCC32C)cc1OC (stereo not drawn)	i	0.87	-6	.	-21	89	103
N#C/C(=C\c1ccco1)C(=O)Nc1ccc(S(N)(=O)=O)cc1	i	0.89	1	.	.	.	102
Cc1ccc(NC(=O)N2CCN(C)CC2)cc1NC(=O)N1CCN(C)CC1	i	1.1	.	.	.	.	104
Nc1ccc(N=Nc2ccccc2)c2ccccc12	i	1	.	.	.	.	85
Cc1ccc(S(=O)(=O)N/N=C2/CC(c3ccccc3)Oc3ccccc32)cc1[N+](=O)[O-] (stereo not drawn)	i	0.76	-1	-1.6	23	71	132
C(=N/N1CCN(c2ccccc2)CC1)/c1ccncc1	i	0.99	-5	.	.	.	98
CCN1C(=O)/C(=c2/s/c(=C3\SC(C)=C(C)N3CC)c(=O)n2CC)N(c2ccccc2)C1=S	.	.	-9	-0.5	-369	91	.
O=C1C(C2=NC(C(=O)O)C3C(=O)N(c4ccc(Cl)cc4)C(=O)C23)=C(O)c2ccccc21 (stereo not drawn)	i	1.1	-5	-0.5	.	.	106
COCCn1nnnc1CN(Cc1cc2cc(OC)c(OC)cc2[nH]c1=O)C1CCCC1	i	1	-19	0.0	.	.	96
Cc1cccc(CC(=O)Nc2cc(=O)n(C)c(=O)n2C)c1	i	0.94	-1	1.1	29	181	106
Cc1ccc(OCC(=O)N/N=C\c2ccc(O)c([N+](=O)[O-])c2)c([N+](=O)[O-])c1	.	.	1	.	14	206	102
CC(C)(C)NC(=O)C12CCC(C)(c3nc4ccccc4nc31)C2(C)C (stereo not drawn)	i	0.88	-6	-0.2	.	.	106
COc1cc(-c2[nH]ncc2CN2CCCC2c2nonc2C)cc(OC)c1OC (stereo not drawn)	i	1.1	5	.	.	.	127
COc1ccc(C2CC(C(F)(F)F)n3nc(C(=O)NCCN4CCOCC4)cc3N2)cc1 (stereo not drawn)	i	0.88	-12	-1.6	26	122	107
COc1ccc(C(C#N)N2N=C(C)CC2(C)C)cc1 (stereo not drawn)	i	0.88	7	-3.1	-23	78	125
N/C(CN1CCCCC1)=N\S(=O)(=O)c1cc(Cl)cc(Cl)c1	i	1.2	.	.	.	.	94
CC(C)(C)c1ccc(C(=O)Nc2cccc3c(=O)[nH][nH]c(=O)c23)cc1	.	.	0	0.9	33	88	95
CCNc1oc(COc2cccc(C)c2)nc1C#N	i	0.96	5	-1.7	30	110	100
CCCOc1ccc(/C=N/NC(=O)C(C)Sc2ccccn2)cc1OCC (stereo not drawn)	i	0.89	-8	0.0	-49	114	100
COc1ccccc1N1CCN(C(C)C(=O)N2CC(C)OC(C)C2)CC1 (stereo not drawn)	i	0.99	-3	.	64	201	101
c1coc(CNc2nc(-c3ccncc3)cs2)c1	i	0.85	-3	-1.8	60	125	99
CCc1noc(C)c1C(=O)N1CCOCC1	i	1	9	-0.1	-26	214	104
CCCN(CCC)CCCNC(=O)C1c2cc(OC)c(OC)cc2C(=O)N(C)C1c1cccs1 (stereo not drawn)	i	0.92	-3	-1.1	-3	115	101
O=C(N[C@@H](Cc1ccccc1)C(=O)O)c1ccncc1	i	1.1	-5	.	.	.	101
O=C(Nc1ccc(Cl)cc1)c1cccc(N2C(=O)C3C4CCC(C4)C3C2=O)c1 (stereo not drawn)	i	0.94	6	-1.0	36	144	101
O=C(C1=C[C@H](c2csc3ccccc23)C[C@H](OCCCCO)O1)N1CCN(Cc2ccccc2)CC1	i	0.79	-3	.	.	.	103
c1ccc(CSc2nc3ncncc3[nH]2)cc1	i	1	.	.	.	.	96
CCNC(=O)COC(=O)C1C(C(=O)OCC)=C(C)NC(C)=C1C(=O)OCC	i	0.98	-8	-1.7	-1	151	100
CC(/C=C1\SC(=S)N(NC(=O)c2ccc(C)cc2)C1=O)=C\c1ccccc1	i	1	6	-2.1	.	.	133
Cc1cc(OC(=O)c2ccccc2Cl)cc(=O)n1C	i	1.1	6	-2.1	.	.	99

Retrieved by compound from the list above:
SMILES	HSV replic up	HSV replic up primary fold	PKD1 kinase inh	GALR2 ag	Insulin prom inh	Insulin prom inh cell count	RGS16-Gao HTS
O=C(N[C@@H](Cc1ccccc1)C(=O)O)c1ccncc1	i	1.1	-5	.	.	.	101
CC(C)(C)c1ccc(C(=O)Nc2cccc3c(=O)[nH][nH]c(=O)c23)cc1	.	.	0	0.9	33	88	95
CCCOc1ccc(/C=N/NC(=O)C(C)Sc2ccccn2)cc1OCC (stereo not drawn)	i	0.89	-8	0.0	-49	114	100
c1coc(CNc2nc(-c3ccncc3)cs2)c1	i	0.85	-3	-1.8	60	125	99

(list continues)
SMILES	HSV replic up	HSV replic up primary fold	PKD1 kinase inh	GALR2 ag	Insulin prom inh	Insulin prom inh cell count	RGS16-Gao HTS
COc1ccc(NC(=O)c2c(Cl)nc3ccccn23)cc1	i	0.84	1	.	.	.	98
CCCC(=O)N1CCc2[nH]c3ccccc3c2C1	i	1.1	4	-0.4	.	.	90
Cc1ccc(Sc2cc(NCCCO)c([N+](=O)[O-])c3nonc23)cc1	i	0.94	.	.	.	.	100
Cc1ccc2c(c1)c(C)cc(=O)n2CCC(=O)O	i	0.92	1	-0.8	.	.	92
CCOCC(=O)Nc1nnc(COc2ccc(Cl)cc2)s1	i	0.83	-9	-1.5	-77	84	80
O=C(CSc1nnc(-c2ccncc2)n1Cc1ccccc1)NC1CCCCC1	i	0.94	.	.	.	.	99
CCOc1cc(C(=O)NCCCn2ccnc2)cc(OCC)c1OCC	i	0.99	-22	-1.6	31	85	114
COc1ccc(-c2cc(CNS(=O)(=O)c3ccccc3)on2)cc1	i	0.98	-4	.	9	186	109
CCCCn1c(=O)[nH]c(=O)c2c1nc(-c1ccsc1)n2Cc1ccccc1	i	1.1	1	-0.5	-33	103	102
COc1ccccc1N1C(=O)C2C(c3ccc(F)cc3)NN(C(=O)c3ccc(C)cc3)C2C1=O (stereo not drawn)	i	0.95	0	.	.	.	105
O=[N+]([O-])c1cccc(C2=NC(c3ccccc3)CO2)c1 (stereo not drawn)	i	1.2	1	-1.2	-10	86	94
COc1ccc(CNc2nc(NCc3ccc(OC)cc3)c3[nH]cnc3n2)cc1	i	0.79	.	.	.	.	102
CCOc1ccc(-c2nc(C#N)c(N3CCCCCC3)o2)cc1	i	0.98	6	-0.8	.	.	101
Cn1ccnc1SCC(=O)Nc1nc2ccccc2s1	i	0.99	-9	.	.	.	102
CCCNC(=O)c1ccc2c(c1)C1C3CCC(C3)C1C(c1ccccc1)N2 (stereo not drawn)	i	0.93	1	-1.8	-16	107	103
N#C/C(=C\c1ccc(N2CCCCC2)c([N+](=O)[O-])c1)c1nn(-c2ccccc2)c(N)c1C#N	i	0.75	-8	-2.7	8	107	113
COc1ccc(-c2cnnn2-c2ccc(NC(=O)c3ccco3)cc2)cc1OC	i	0.9	-18	20*	-50	131	95
O=C(NCC1CCN(Cc2ccccc2Cl)CC1)Nc1cccc(Cl)c1	i	0.92	0	.	.	.	100
CCCC1=C(C(=O)OCC)C(c2ccc(OC)c(CSc3ccccn3)c2)C(C#N)=C(N)O1 (stereo not drawn)	i	0.86	-6	0.0	.	.	110
COCCNC(=O)/C(C#N)=C/c1ccc(-c2ccc(S(=O)(=O)N3CCOCC3)cc2)o1	i	1	-3	0.5	14	118	-1.2*
CC(SCc1ccccc1)C(=O)N/N=C/c1ccc(OCC(=O)NCc2ccco2)cc1 (stereo not drawn)	i	0.99	-8	-0.2	.	.	101
COc1cc(-c2nnn(CC(=O)N3CCOCC3)n2)cc(OC)c1OC	i	0.91	-3	0.9	-3	98	99
CC1CCCN(c2nc3c(c(=O)[nH]c(=O)n3C)n2CCSc2ncccn2)C1 (stereo not drawn)	i	0.87	-8	.	.	.	96
CCCCOC(=O)CSc1nc2ccccc2o1	i	0.94	.	.	.	.	93
O=C(CN(Cc1ccccc1Cl)C(=O)c1ccc(CN2CCOCC2)o1)NCC1CCCO1 (stereo not drawn)	i	1	-7	-3.2	-22	160	96
CCOC(=O)C/C(C)=N/NC(=O)COc1ccccc1C	i	1	4	1.6	.	.	56
Cc1c[nH]c(=O)c([N+](=O)[O-])c1	i	0.88	.	.	.	.	85
COc1ccc(-c2nc(NC(=O)c3[nH]c(C)c(C(C)=O)c3C)sc2C)cc1	i	0.9	5	.	8	115	95
Cc1onc(-c2ccccc2)c1C(=O)N/N=C/C(Br)=C/c1ccccc1	i	0.86	4	-0.5	-60	54	81
OC(COc1cccc2ccccc12)CN1CCN(c2ccc(Cl)cc2)CC1 (stereo not drawn)	i	0.91	.	.	.	.	99

Reprinted from the part before: 2 compounds, then new ones.
SMILES	HSV replic up	HSV replic up primary fold	PKD1 kinase inh	GALR2 ag	Insulin prom inh	Insulin prom inh cell count	RGS16-Gao HTS
Cc1onc(-c2ccccc2)c1C(=O)N/N=C/C(Br)=C/c1ccccc1	i	0.86	4	-0.5	-60	54	81
OC(COc1cccc2ccccc12)CN1CCN(c2ccc(Cl)cc2)CC1 (stereo not drawn)	i	0.91	.	.	.	.	99
Cc1ccn2cc(-c3ccc4c(c3)NC(=O)CO4)nc2c1	i	0.98	8	.	.	.	104
O=C(Nc1ccccc1)Nc1cc(S(=O)(=O)N2CCOCC2)ccc1N1CCCC1	i	1.1	11	-0.1	-26	113	87
CC(C)CNC(=S)Nc1ccc(F)cc1	i	1.1	-4	0.3	7	136	100
Cc1sc(NC(=O)c2ccco2)c(CN2CCN(c3ccccn3)CC2)c1C	i	0.75	-2	2.1	.	.	109
COc1ccc(-c2cc(-c3ccco3)[nH]c(=O)c2C#N)cc1	?	.	.	.	.	.	102
COc1ccc(C2C(C(=O)c3cccs3)=C(O)C(=O)N2c2cccc(C)n2)cc1 (stereo not drawn)	i	1.1	.	.	.	.	101
COc1ccc(Nc2cc(C(=O)NCc3ccccn3)c3ccccc3n2)c(OC)c1	i	0.92	-6	.	-92	89	105
Cc1ccc(C(=O)NC(=S)NCc2ccco2)cc1	i	0.94	2	.	-8	109	106
Cc1cc(OCCN2CCCC2)cc(C(C)C)c1	.	.	0	-1.4	-8	140	93
Cc1ccc(C2CC(=O)C=C(NCc3ccccc3)C2)cc1 (stereo not drawn)	i	0.69	.	.	.	.	97
CCCCNC(=O)c1onc(CSc2ccc(C)c(C)c2)c1C(=O)O	i	0.74	-8	-2.8	.	.	105
CCOC(=O)CC(NC(=O)c1cccc2c1C(=O)N(Cc1cccnc1)C2)c1ccc(OCC)c(OC)c1 (stereo not drawn)	i	0.94	-8	.	7	49	97
Cc1c(C(=O)NCc2ccc3c(c2)OCO3)oc2ccccc12	i	0.93	6	-3.0	29	62	22*
CC(C)(C)c1ccc2c(c1)OC(C(=O)N/N=C\c1ccc(-c3cccc(C(=O)O)c3)o1)CO2 (stereo not drawn)	i	1.1	.	.	.	.	95
CCCN(CCC)C(=O)Cn1ccc(=N)c2ccccc21	i	0.91	-6	-0.6	.	.	63
CCc1ccc(-c2c(C)sc(NC(C)=O)c2C(N)=O)cc1	i	0.98	6	-1.4	25	97	97
Cc1cc(C)c(N(C(=O)CN2C(=O)c3ccccc3S2(=O)=O)C(C(=O)NCC2CCCO2)c2ccc(F)cc2)c(C)c1 (stereo not drawn)	i	0.87	2	0.0	40	111	103
C=CCn1c(-c2sc(-c3ccccc3)nc2C)n[nH]c1=S	i	0.85	-2	.	44	149	104
COc1cc(C(=O)Nc2cc(Cl)ccc2C)c(-n2cnnn2)cc1OC	i	0.93	3	-1.8	-34	124	114
COc1ccc(C2C=C(c3ccc(C)c(C)c3)Nc3ncnn32)c(OC)c1OC (stereo not drawn)	i	0.71	1	-2.9	.	.	100
O=C1CC(N2CCc3ccccc32)C(=O)N1c1ccc(F)cc1 (stereo not drawn)	i	0.87	-8	.	.	.	104
COc1ccc(/C=C/CN2CCN(Cc3ccc(F)cc3)C(CCO)C2)cc1 (stereo not drawn)	i	0.96	-1	.	.	.	96
COc1ccc(S(=O)(=O)N(CC(=O)N2CCN(c3ccccc3)CC2)c2ccccc2)cc1	i	0.82	-2	-0.7	31	99	102
Cn1cnc2c1c(=O)n(Cc1c(Cl)cccc1Cl)c(=O)n2C	i	0.75	-7	-0.8	-10	98	126
CN(C)CCC(=O)c1ccc2c(c1)OCO2	i	0.8	0	-0.9	82*	89*	103
